High-throughput results from PubChem.
UCH37 DUB inh = inhibitors of human UCH37 deubiquitinase, primary screen, biochemical, Ub-AMC cleavage, fluorescence. inhibition, % (no concentration beside the values). Ubiquitin carboxyl-terminal hydrolase isozyme L5 (Homo sapiens), Q9Y5K5. purified proteasome/UCH37. 330,000 tested, 0.33% active;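 active means mean of two replicates above 20%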;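 further: 0% = compound-free wells with enzyme and 100% = wells lacking proteasome; stock transfer was 100 nL into about 20 µL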
Target sequence (Q9Y5K5 whole entry, looked up): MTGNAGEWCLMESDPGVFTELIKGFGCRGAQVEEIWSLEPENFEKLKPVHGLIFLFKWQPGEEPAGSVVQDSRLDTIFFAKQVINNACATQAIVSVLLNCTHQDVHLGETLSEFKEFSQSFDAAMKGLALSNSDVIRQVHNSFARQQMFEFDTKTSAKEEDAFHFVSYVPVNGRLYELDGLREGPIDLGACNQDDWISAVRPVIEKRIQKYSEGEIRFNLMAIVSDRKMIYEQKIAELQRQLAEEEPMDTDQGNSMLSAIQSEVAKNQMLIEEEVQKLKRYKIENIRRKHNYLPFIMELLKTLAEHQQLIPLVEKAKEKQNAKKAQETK
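Material: Human UCH37 enzyme supplied as purified proteasome complex | Schedule: 30 min preincubation with enzyme, 25 min cleavage at room temperature | Detection: AMC fluorescence 355/460 nm | Measure: % inhibition of Ub-AMC cleavage fluorescence | Controls: Wells without proteasome as full block, compound-free enzyme plus substrate as uninhibited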
Ecoli growth = E. coli growth inhibition, primary screen, OD600; Escherichia coli growth, 23 h; hits give low values; OD600 absorbance (concentration not given with the values); 330,000 tested, 0.21% active;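 active means OD600 absorbance below the run mean of sample wells minus 3.6 SD, in any replicate, cut at about 0.56 in these data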;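 further: stock transfer was 300 nL into about 60 µL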
rRNA inh HTS = reduced GFP signal of wild-type E. coli, primary screen, bacterial rRNA inhibitor project, GFP/RFP fluorescence, OD600, single point | GFP signal change (wild-type ribosome), % (concentration not given with the values) | E. coli WT GFP vs humanized-ribosome RFP mutants, 24 h; hits give low values; DMSO median 0, no signal -100 | 350,000 tested, 1.6% active;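 active means significant combined selectivity score with lowered wild-type GFP, culture density cut under 30%, mutant RFP and density less affected; inactive means any of these conditions unmet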; further: one replicate is shown; some compounds called inactive have numbers as strong as hits
FGF22 binding = binders of human FGF22 protein, primary screen, FGF22 synaptogenesis inhibitor project, biophysical, thermal shift, single point; Fibroblast growth factor 22 (Homo sapiens), Q9HCT0; recombinant FGF22 thermal shift, SYPRO orange fluorescence; percent of sucrose octasulfate shift, DMSO zero; calls only at 9.99 µM; 340,000 tested, 1.5% active;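 active means melting point raised past a set limit in the mean and every replicate; inconclusive means no clear call; three in four hits are not shown here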
B2AR ag = beta2AR agonists driving receptor internalization, primary screen, cell-based, FAP fluorogen, flow cytometry; Beta-2 adrenergic receptor (Homo sapiens), P07550; Am2.2-beta2AR cells; reference of the scale not given here; response, % (concentration not given with the values); 340,000 tested, 0.43% active; AID 504454, 2011;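 active means response above a set limit, near 3 SD of response in nonfluorescent compounds, cut at about 42% in these data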;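 further: stock transfer was 100 nL into about 11 µL; a reference agonist was the positive control; negative values mostly stem from fluorescent compounds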
Target sequence (P07550 whole entry, looked up): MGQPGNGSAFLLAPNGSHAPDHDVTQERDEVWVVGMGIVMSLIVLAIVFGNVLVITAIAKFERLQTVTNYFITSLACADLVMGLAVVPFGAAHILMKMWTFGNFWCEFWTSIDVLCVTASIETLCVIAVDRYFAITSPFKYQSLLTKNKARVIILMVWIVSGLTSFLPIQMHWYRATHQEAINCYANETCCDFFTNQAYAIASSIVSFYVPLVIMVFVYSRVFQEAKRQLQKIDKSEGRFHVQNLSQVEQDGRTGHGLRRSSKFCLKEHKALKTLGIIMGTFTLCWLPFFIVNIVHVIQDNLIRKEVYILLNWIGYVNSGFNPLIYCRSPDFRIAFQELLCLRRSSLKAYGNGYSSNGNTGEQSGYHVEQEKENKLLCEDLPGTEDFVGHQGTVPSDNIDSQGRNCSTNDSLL
HNF4A DNA FP = change in binding of human HNF4A to DNA, primary screen, biochemical, fluorescence polarization, FITC-DNA; Hepatocyte nuclear factor 4-alpha (Homo sapiens), P41235; 1 h; activity change, % at 10 µM; 360,000 tested, 0.3% active; AID 1224865, 2016; in the data active means activity change above about 30%, passing the limit was not always enough;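 further: controls were the assay level and a saturating level of protein; the project sought stronger binding though the title names inhibitors; some compounds called inactive have numbers as strong as hits; positive values seem to mean higher polarization but the record does not say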
ALR H2O2 inh = inhibitors of human ALR sulfhydryl oxidase, primary screen, biochemical, H2O2 detection, HRP-luminol luminescence, single point | 290,000 tested, 3.8% active | AID 485317, 2010 | inhibition, % (no concentration beside the values) | FAD-linked sulfhydryl oxidase ALR (Homo sapiens), P55789 | purified ALR, DTT oxidation;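 active means mean and each replicate at 75% or more; inconclusive means only one of the two met; inactive means neither met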;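 further: stock transfer was 7.5 nL into about 7.5 µL; 0% = neutral wells and 100% = wells with inactivated enzyme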
Target sequence (P55789 whole entry, looked up): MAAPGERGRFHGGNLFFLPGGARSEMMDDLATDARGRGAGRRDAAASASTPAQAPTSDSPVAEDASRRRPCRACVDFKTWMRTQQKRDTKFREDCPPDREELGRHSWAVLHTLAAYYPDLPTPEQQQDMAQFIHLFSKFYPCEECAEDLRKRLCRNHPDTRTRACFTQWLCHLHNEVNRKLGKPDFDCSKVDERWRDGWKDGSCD
rRNA inh HTS OD600 = further read-out of rRNA inh HTS, marked with its call; OD600 change, %; measured here: OD600 growth;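 optical density of the mix in the first replicate; 0 = DMSO median and -100 = no signal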
rRNA inh HTS RFP = recorded beside rRNA inh HTS, whose call it bears; RFP signal change, %; measured here: RFP humanized mutant strains;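 first replicate; 0 = DMSO median and -100 = no signal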
* marks the source's active call; other numbers are inactive results; i = inactive; ? = inconclusive; . = not tested or not shown.

The line under a structure holds: UCH37 DUB inh	Ecoli growth	rRNA inh HTS	rRNA inh HTS OD600	rRNA inh HTS RFP	FGF22 binding	B2AR ag	HNF4A DNA FP	ALR H2O2 inh
> C=C(C)Cn1c(=O)c2c(nc3n2CCN3c2cccc(Cl)c2C)n(C)c1=O
  4.3	0.7	.	.	.	.	-1	-1.6	-5
> O=C1CN(C(=O)NCC(=O)N[C@H](Cc2ccccc2)C(=O)O)c2ccccc2N1
  -1.0	0.66	.	.	.	i	-5	-0.7	.
> CNc1cncc(-c2ccc(CN(C)C)cc2)n1
  .	.	11	17	-1.9	i	.	-2.5	.
> CCc1cc2c(=O)c(-c3ccc4c(c3)OCCO4)coc2cc1OC(=O)c1ccco1
  0.7	0.68	.	.	.	.	5	-1.6	-2
> Cn1c(=O)[nH]c(=O)c2c1nc(N1CCNCC1)n2Cc1cccc2ccccc12
  0.6	0.73	.	.	.	.	-4	-1.2	-3
> CCN(CC)c1nc(NN)nc(Nc2ccc(C)c(Cl)c2)n1
  3.3	0.64	.	.	.	i	16	5.4	.
> C[C@@H]1NC(=O)/C(=C\c2ccccc2Br)NC1=O
  1.4	0.7	15	9	-0.6	i	-7	3.4	.
> O=C(C1CCCN(Cc2cccs2)C1)N1CCCCCC1 (stereo not drawn)
  5.2	0.72	.	.	.	.	4	1.3	11
> CC(C)(C)C(=O)NC1CCN(S(=O)(=O)c2ccc(C(F)(F)F)cc2)CC1
  5.0	0.66	12	6	2.5	i	-11	-4.5	-7
> COc1ccccc1Nc1nnc(SCC(=O)Nc2cc(C)on2)s1
  -1.4	0.69	.	.	.	.	8	-0.9	1
> CC1(C(=O)NS(=O)(=O)c2cccc(Cl)c2)CCN1C(=O)C1(c2ccc(Cl)cc2)CCC1 (stereo not drawn)
  .	.	-16*	-8.8*	1.9*	i	.	0.7	.
> CCOc1ccc(NS(=O)(=O)c2ccc3[nH]c(=O)oc3c2)cc1
  4.5	0.74	-12	-30	-0.1	i	-4	-2.9	-2
> CCOC(=O)C1(NC(=O)CN2C(=O)c3ccccc3C2=O)CCCC1
  1.5	0.68	14	9	0.2	i	-5	-1.8	.
> CC1(C(=O)N(CC(=O)NC2CCCC2)C2CCCC2)CC(=O)N=C2C=CC=CN21 (stereo not drawn)
  -446	0.69	.	.	.	.	-14	1.2	1
> COC(=O)[C@@]12C[C@@H](CC(=O)N3CCOCC3)C(=O)N(CCc3ccc(OC)c(OC)c3)C1=CCC(C)(C)C2
  .	.	2	2	-0.3	i	.	-1.6	.
> CC(C)(C)c1ccc(N2C(=O)CC(c3ccccc3)C2=O)cc1 (stereo not drawn)
  0.9	0.69	13	16	1.8	i	-7	0.5	-11
> CCCc1[nH]nc2c1C(c1ccc(OC)c(CSC3=NCCS3)c1)C(C#N)=C(N)O2 (stereo not drawn)
  4.0	0.69	.	.	.	.	2	0.3	?
> CC(C)C1C(=O)N(Cc2cn(CCC3OCCO3)nn2)CCS(=O)(=O)N1Cc1ccc(-c2ccccc2)cc1 (stereo not drawn)
  .	.	-10	-17	-0.8	i	.	-1.4	.
> CC(CNS(=O)(=O)c1ccccc1)Sc1ncccn1 (stereo not drawn)
  4.8	0.7	3	-2	15	i	1	1.1	-3
> O=C(NCCN1CCCCC1)Nc1ccc(F)cc1F
  -0.1	0.7	-3	11	1.7	i	-3	-1.4	-17

The list goes on, starting with the last 2 of the part before.
The line under a structure holds: UCH37 DUB inh	Ecoli growth	rRNA inh HTS	rRNA inh HTS OD600	rRNA inh HTS RFP	FGF22 binding	B2AR ag	HNF4A DNA FP	ALR H2O2 inh
> CC(CNS(=O)(=O)c1ccccc1)Sc1ncccn1 (stereo not drawn)
  4.8	0.7	3	-2	15	i	1	1.1	-3
> O=C(NCCN1CCCCC1)Nc1ccc(F)cc1F
  -0.1	0.7	-3	11	1.7	i	-3	-1.4	-17
> C=CCn1c(=O)/c(=C/c2ccsc2)s/c1=C(\C#N)C(=O)NCCN1CCOCC1
  1.8	0.69	14	9	14	i	5	8.4	.
> CC(NS(=O)(=O)c1ccccc1)C(=O)NCCc1ccccn1 (stereo not drawn)
  5.1	0.69	18	16	0.5	.	1	0.7	-1
> CN(C)CCCNC(=O)C(=O)NCC1OCCN1S(=O)(=O)c1cccs1 (stereo not drawn)
  1.0	0.71	7	4	0.5	i	5	7.3	-6
> Cc1nn(C)c(C(=O)N2CCN(C(=O)c3ccco3)CC2)c1[N+](=O)[O-]
  6.3	0.73	5	7	-0.7	i	-3	3.1	-11
> CC(C)c1ccc(OCCCN2CCCC2)cc1
  0.5	0.63	0	7	-4.9	i	-4	1.2	-26
> CCCCNC(=O)O[C@H]1C[C@@H]2CCN3C(=O)CCC[C@H]([C@H]1CC)[C@H]23
  1.4	.	7	6	-9.1	i	8	1.6	-5
> O=C1Cc2ccccc2C(=O)N1Cc1cccc(Cl)c1
  34*	0.72	2	-9	2.8	i	-16	2.9	2
> COc1ccc(N2CCN(C(c3cccs3)C(C)NC(=O)C(=O)N3CCCCC3)CC2)cc1 (stereo not drawn)
  3.2	0.65	8	-18	6.0	i	70*	0.8	98*
> COc1ccc(-c2cccc(C3CC=CC4C3C(=O)N(Cc3ccccc3)C4c3ccc(OC)c(Cl)c3)c2)cc1 (stereo not drawn)
  -2.6	0.66	.	.	.	.	6	3.0	23
> CCCc1cc2c(cc1NC(=O)c1ccc(C)cc1)OCO2
  4.9	0.74	.	.	.	.	10	2.9	1
> NS(=O)(=O)c1ccc(NC(=O)COC(=O)c2ccc(Cl)cc2[N+](=O)[O-])cc1
  3.6	0.67	-7	5	-5.9	i	2	-2.4	-11
> CCCc1nc(C)c(-c2ccc(OC)c(OC)c2)c(=O)[nH]1
  4.5	0.77	.	.	.	.	2	-2.2	-2
> O=C(Nc1ccccc1)Nc1sccc1-c1nc2ccccc2s1
  -15	0.75	-21*	-8.2*	-1.0*	i	26	7.5	1
> CCCOc1c(OC)cccc1C1CC(=O)Nc2cc3c(cc21)OCO3 (stereo not drawn)
  1.4	0.7	.	.	.	.	-3	-2.5	10
> O=C(O)CC(CC(=O)Nc1ccc2ccccc2n1)c1ccccc1 (stereo not drawn)
  1.1	0.66	-20*	4.3*	0.1*	i	1	4.1	.
> CCCOC(=O)c1ccc(OCC(O)CN2CCN(C(=O)c3ccccc3)CC2)cc1 (stereo not drawn)
  2.2	0.71	.	.	.	.	-4	-0.1	-5
> C/C(=N\NC(=O)COc1cccc(Br)c1)c1ccc2c(c1)OCCO2
  .	.	-5	0	0.7	i	8	-3.2	9
> N/C(=N\C(=S)Nc1ccc2c(c1)OCO2)c1ccccc1
  .	.	-29	-30	-4.5	i	.	-0.5	.
> COc1cccc(/C=C2/SC(=S)N(CC(=O)Nc3nnc(C)s3)C2=O)c1
  4.5	0.77	2	9	1.6	i	5	2.0	.
> CCOC(=O)C1CCCN(C(=O)CN2C(=O)C(CC)Oc3ccc(C)cc32)C1 (stereo not drawn)
  0.6	0.71	.	.	.	.	3	1.5	-1
> COc1ccc(-c2ccc(SCC(=O)c3ccccc3)nn2)cc1OC
  3.6	0.69	-5	-12	0.3	i	-1	4.1	18
> CCN(CC(=O)Nc1cccc(OC)c1)CC(=O)Nc1ccccc1C
  2.8	0.64	5	-2	0.3	i	-3	4.3	-4
> Cc1ccc([N+](=O)[O-])cc1NC(=O)CSc1n[nH]c(-c2cccnc2)n1
  5.2	0.7	6	9	-1.8	i	-1	1.4	-7
> COc1ccc(-n2cnc3c(N)nc(N)nc32)cc1
  4.9	0.65	8	19	-1.5	i	4	0.2	.
> C=Cc1ccc(Cn2c(=O)n(C)c(=O)c3sccc32)cc1
  0.8	0.71	13	10	-0.5	i	10	-1.3	-9
> NS(=O)(=O)c1ccc(NC(=O)/C=C/c2ccccc2[N+](=O)[O-])cc1
  0.9	0.7	-13	3	1.3	.	6	3.6	2
> CCC(Oc1ccccc1)C(=O)N1CCN(C(=O)C(CC)Oc2ccccc2)CC1 (stereo not drawn)
  4.0	0.66	3	-7	-4.3	i	7	-2.3	-5
> C=CCn1c(C)cc(C(=O)COC(=O)c2ccc(N)c([N+](=O)[O-])c2)c1C
  1.1	0.68	-15	-26	-2.7	i	-5	-4.8	5
> Cc1ccc(C)c(NC(=O)Cc2nc(CNCC(C)C)cs2)c1
  -1.1	0.67	6	4	13	i	2	0.3	-5
> CCOc1ccccc1NC(=O)N1CCC(n2nnc3cc(C)ccc32)CC1
  2.2	0.66	.	.	.	.	-2	10	-1
> COc1cccc(-c2csc(N3CCN(CC(=O)NNC(=O)c4ccc(Br)cc4)CC3)n2)c1
  0.1	0.62	-13	-15	2.3	.	-4	-2.2	.
> COc1cc(C(Nc2ccc(S(=O)(=O)N3CCC(C)CC3)cc2)C(=O)NCC2CCCO2)cc(OC)c1OC (stereo not drawn)
  0.1	0.68	.	.	.	.	4	0.9	.
> Cc1cc(NC(=O)C(=O)NCc2cccc(Cl)c2)no1
  6.0	0.63	3	-14	-0.8	i	3	3.0	.
> CCN(CC)S(=O)(=O)c1ccc(C(C)NC(=O)Cc2c[nH]c3ccccc23)cc1 (stereo not drawn)
  4.9	0.66	-1	-15	6.4	i	-5	0.9	.
> CCCCC(=O)Nc1ccc(NC(=S)NC(=O)CC(C)C)cc1OC
  -1.6	0.67	.	.	.	.	-4	0.6	-4
> CC(=O)N1CCN(S(=O)(=O)c2cccc(C(=O)Nc3nc4c(s3)CCCC4)c2)CC1
  3.8	0.68	-16	-15	3.9	.	-10	2.3	31
> Cc1c(C(=O)N2CCCC(C(F)(F)F)C2)oc2ccccc12 (stereo not drawn)
  3.0	0.7	-5	-7	0.3	i	-5	-0.5	-4
> CC[C@@H]1C=C(C(=O)O)[C@H](c2ccc(Cl)c(Cl)c2)N1S(=O)(=O)c1ccc(C)cc1
  4.0	0.68	-44	-58	-9.9	i	7	-2.6	.
> COC(=O)C1Cc2c([nH]c3ccccc23)C2CCC(=O)N12 (stereo not drawn)
  .	.	4	3	9.7	i	.	7.3	.
> O=C(NCc1ccncc1)C(=O)NCc1ccco1
  1.0	0.72	6	-1	-1.5	i	-7	-0.7	-12
> C=C1C(=O)[C@@]23[C@H](O)C[C@@H]4C(C)(C)CC[C@H](O)[C@@]4(C)[C@@H]2CC[C@@H]1[C@H]3O
  -0.3	.	12	5	5.9	i	46*	2.2	63
> Cc1cccc(-c2n[nH]c(=S)n2/N=C/c2ccco2)c1
  .	.	-7	-9	-3.8	i	7	-2.8	58
> CCOC(=O)CNC(=O)C1CCCc2c1[nH]c1ccc(Cl)cc21 (stereo not drawn)
  2.9	0.64	-36	-56	-3.8	i	9	-2.2	14
> C=CCn1c(SCC(=O)NC2CC2)nnc1-c1ccccn1
  5.7	0.68	10	11	0.4	i	-4	2.6	-2
> O=C(OCC(=O)c1cccs1)C1=COCCO1
  -0.2	0.73	.	.	.	.	3	-1.7	-2
> Cc1ccc(-n2[nH]c(C)c(/C=N/NC(=O)c3ccc(O)cc3O)c2=O)cc1
  .	.	.	.	.	.	13	1.7	94*

Not all compounds are listed (hit frequency here may not be typical).
